S aureus helic = blocks Staphylococcus aureus DNA helicase | purified S. aureus helicase, fluorescence unwinding assay; about half of the hits fall short of the stated cut | inhibition, %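 (tested at about 80 µM)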 | 120,000 tested, 0.05% active | AID 485395;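 active means both duplicates at 50% or more, or one of them with a favoured structure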;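 further: 0% = mean of negative control wells and 100% = mean of positive control wells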
MgrA-DNA mod = S. aureus MgrA-DNA binding modulation | AID 602314 | fluorescence polarization | 84,000 tested, 0.13% active | inhibition, %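 (about 10 µg/mL by stock and volumes)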;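 active means above 50% in either of two replicates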;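 further: 0% = protein plus DNA without compound and 100% = DNA alone without protein; higher means less MgrA bound to DNA so lower polarization; one replicate is shown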
Starred values were filed as active, the others as inactive; i = inactive; nt = not tested or not shown.

SMILES	S aureus helic	MgrA-DNA mod
CN(C)S(=O)(=O)NC1CC(=O)N(c2ccc(F)cc2)C1 (stereo unspecified)	9	nt
CN(C)c1ccc(/C=C/CN2CCCCCC2)cc1	12	-0.1
CCOC(=O)/C=C1\SCC(=O)N1C(C)C(=O)Nc1ccc2c(c1)OCCO2 (stereo unspecified)	-17	nt
O=P(/C(=N/O)Sc1ccccc1)(N1CCOCC1)N1CCOCC1	nt	1.6
CC(C)N1C(=O)S/C(=C/c2ccc3c(c2)OCCO3)C1=O	25	nt
O=C(NC1CCCCC1)C(c1cccs1)N(Cc1ccco1)C(=O)C1COc2ccccc2O1 (stereo unspecified)	1	-2.0
COc1ccc(Nc2nc(NC(=O)Nc3ccc(Cl)cc3)n[nH]2)cc1	-21	nt
Cc1ccc(C2CC(=O)c3cnc(N4CCOCC4)nc3C2)cc1 (stereo unspecified)	-2	nt
O=C(NC1CCCC1)C(c1ccncc1)N(Cc1ccco1)C(=O)Cn1nnc(-c2ccc(Cl)cc2)n1 (stereo unspecified)	3	1.5
O=C(CCN1C(=O)C2CC=CCC2C1=O)OCn1nnc2ccccc2c1=O (stereo unspecified)	13	nt
Cc1ccc(Nc2cc(C(=O)NCc3ccco3)c3ccccc3n2)c(C)c1	-31	nt
CCn1c2ccccc2c2cc(NS(C)(=O)=O)ccc21	8	7.2
CCN(CC)C(=O)C12CC3CCC(CC(C3)C1)C2	8	2.1
CCN(CC)CC(=O)Nc1cc(C)nn1-c1ccccc1	nt	-1.1
CC1CCN(C(=O)COc2ccc(F)cc2)CC1	-9	-6.0
O=C1C(c2ccnc3ccccc23)=C(O)c2ccccc21	10	6.1
CCc1ccc(NC(=O)c2ccc(NC(=O)C3CCCO3)cc2)cc1 (stereo unspecified)	12	1.3
COc1ccc(Cl)cc1C(=O)NC1CCCC1	9	nt
CCCc1cc(=O)oc2c1c(C)nn2-c1cccc(Cl)c1	nt	1.2
CCC(C)NC(=O)c1ccc2c(c1)ncn2-c1cc(C)cc(C)c1 (stereo unspecified)	1	nt
CC(CO)NC(=O)c1cc2ccccc2oc1=O (stereo unspecified)	19	nt
CC(=O)N(c1ccc(Cl)cc1)C1C=CS(=O)(=O)C1 (stereo unspecified)	9	nt
C=CCNc1ncnc2sc3c(c12)CCCC3	nt	-1.2
O=C(CCN1C(=O)c2ccccc2S1(=O)=O)NCc1ccccc1	23	nt
COc1cccc(C(=O)Nc2cccnc2)c1	-27	nt

Compound profiles (already shown):
COc1cccc(C(=O)Nc2cccnc2)c1 across the screens: S aureus helic: -27; MgrA-DNA mod: nt
CCN(CC)CC(=O)Nc1cc(C)nn1-c1ccccc1 across the screens: S aureus helic: nt; MgrA-DNA mod: -1.1

The list goes on.
SMILES	S aureus helic	MgrA-DNA mod
C=CCc1c(C)nc(C)nc1NCCO	8	-1.2
CC1CCN(S(=O)(=O)c2ccc3c(c2)OCC(=O)N3)CC1	-1	0.9
Cn1c(C(=O)NCc2ccco2)cc2c(=O)[nH]c3ccccc3c21	12	nt
CCCCN(Cc1ccccc1)c1ncnc2nc[nH]c12	-20	nt
C=CCOc1ccc2c(C)cc(=O)oc2c1	-38	nt
Cn1cc(S(=O)(=O)N2CCCC2)cc1C(=O)NCc1ccccc1	10	4.8
Cc1ccc(-c2nn(C)c(=O)c3ccccc23)cc1CN1CCCCC1	1	nt
CCOC(=O)c1c(-n2cnnn2)sc(C)c1C	5	4.2
C=CCn1c(O)c(CN2CCOCC2)c(C)c(C#N)c1=O	8	-0.1
Nc1nc(-c2ccccc2)c(N=Nc2cccnc2)s1	-6	nt
COC(=O)c1cc(S(=O)(=O)N(Cc2ccc(OC)cc2)Cc2cccn2C)oc1C	-19	nt
Oc1ccc2nnc3c(Br)cnn3c2c1	-140	nt
CCN1C/C(=C/c2cc(C)n(C3CC3)c2C)C(=O)/C(=C\c2cc(C)n(C3CC3)c2C)C1	i	nt
Cc1ccc(C(=O)N2CCC(C(=O)O)CC2)cc1	-9	1.2
CC(C)(C)CC(=O)NCc1ccccn1	4	-1.4
COc1ccc(-n2nc(C(=O)Nc3ccc4c(c3)OCCO4)c3c4ccccc4n(C)c3c2=O)cc1	-17	nt
N#C/C(=C\c1cccs1)c1nc2ccccc2[nH]1	nt	-1.4
COc1cc(C2NC(=O)NC(C)=C2C(=O)OCc2ccc3c(c2)OCO3)ccc1OCc1ccccc1 (stereo unspecified)	nt	4.6
O=C(Nc1ccc(Cn2nnc3ccccc32)cc1)c1ccco1	-5	0.2
O=C(O)c1cccc(S(=O)(=O)N2Cc3ccccc3C2)c1	11	nt
COc1cccc2cc(-c3csc(Nc4cccc(C(F)(F)F)c4)n3)c(=O)oc12	3	2.8
NC(=S)CS(=O)(=O)c1cccs1	nt	1.8
CCc1ccc(N2C(=O)NC(=O)/C(=C\c3ccc(OCC(=O)OC)c(OC)c3)C2=O)cc1	nt	0.4
CC(C)CN(CC(C)C)c1ncnc2c1cnn2-c1ccc(Cl)cc1	5	-0.2
Cc1cc(C)c2c(n1)OC(N1CCOCC1)(C(F)(F)F)CC2=O (stereo unspecified)	11	0.2

Molecules from the list above that have a thiophene ring, fused or not:
SMILES	S aureus helic	MgrA-DNA mod
O=C(NC1CCCCC1)C(c1cccs1)N(Cc1ccco1)C(=O)C1COc2ccccc2O1 (stereo unspecified)	1	-2.0
C=CCNc1ncnc2sc3c(c12)CCCC3	nt	-1.2
CCOC(=O)c1c(-n2cnnn2)sc(C)c1C	5	4.2
N#C/C(=C\c1cccs1)c1nc2ccccc2[nH]1	nt	-1.4
NC(=S)CS(=O)(=O)c1cccs1	nt	1.8

(continued)
SMILES	S aureus helic	MgrA-DNA mod
CSC1=NCCN1C(=O)C1CCCCC1	-15	nt
OCCSc1c(F)c(SCCO)c(SCCO)c(F)c1SCCO	20	nt
O=C(c1ccc2snnc2c1)N1CCCCC1	10	-2.6
CCC1CCCCN1C(=O)COC(=O)c1nc(Cl)c(Cl)c(N)c1Cl (stereo unspecified)	-17	nt
NC(=O)CSc1nnnn1CC(CC(=O)O)c1ccccc1 (stereo unspecified)	9	nt
O=C(O)c1csc(-c2ccccc2)c1Cc1ccccc1	7	nt
CC1CC(C)CN(CCCNC(=O)C2CCCN(c3nnc(N4CCCC4=O)s3)C2)C1 (stereo unspecified)	14	nt
COC(=O)[C@@H](NC(=O)c1ccc2c(c1)S(=O)(=O)c1ccccc1C2=O)C(C)C	20	nt
CCN(CC)C(=Nc1ccccc1)Nc1ccccc1	7	3.2
Cn1cc(Cl)c(C2NN=C(SCC(=O)Nc3ccccc3)S2)n1 (stereo unspecified)	nt	3.3
O=C1NC(=Nc2ccc(F)cc2)S/C1=C/c1ccc(N2CCCC2)o1	-124	-4.0
COc1ccc(S(=O)(=O)Nc2ccccc2C(=O)NN2CCOCC2)cc1OC	-22	nt
O=C(O)C1C(c2ccccc2)C(C(=O)N2CCOCC2)C1c1ccccc1 (stereo unspecified)	18	-4.7
COc1cccc(C2C3=C(Nc4c2c(=O)n(C)c(=O)n4C)c2ccccc2C3=O)c1 (stereo unspecified)	8	nt
CC(NS(=O)(=O)c1ccc(Br)cc1)C(c1cccs1)N1CCOCC1 (stereo unspecified)	5	nt
N#C/C(=C/c1ccc(Sc2nc3ccccc3[nH]2)o1)C(=O)N1CCOCC1	9	0.8
CN(C1CCCCC1)S(=O)(=O)c1ccccc1NC(=O)c1ccc[nH]c1=O	22	nt
COc1cn(-c2ccccc2)nc1C(=O)OC(C)C(N)=O (stereo unspecified)	-8	nt
CC1NC(=S)N2C(C)NC(=S)N12 (stereo unspecified)	nt	5.2
O=C1C(c2ccncc2)N(CCC2=CCCCC2)C(=O)CN1C1CCCCC1 (stereo unspecified)	-1	nt
COc1ccccc1NC(=O)Cn1c(=O)c(N(C)C)c(N)n(C)c1=O	9	nt
CCSc1sc(C#N)c2c1C(=O)CC(C)(C)C2	nt	0.0
CNS(=O)(=O)c1cn(CC(=O)Nc2ccccc2)cc1S(=O)(=O)NC	29	nt
CCOC(=O)C1=C(NC(=S)Nc2ccccc2)CC2=C1CCCC2	3	-0.5
Cc1cc(C)c(C#N)c(SCCC(=O)Nc2nc(-c3ccccc3)ns2)n1	-6	-1.4

2 entries from above in another layout:
smiles | S aureus helic | MgrA-DNA mod
O=C(O)c1csc(-c2ccccc2)c1Cc1ccccc1 | 7 | nt
N#C/C(=C/c1ccc(Sc2nc3ccccc3[nH]2)o1)C(=O)N1CCOCC1 | 9 | 0.8

More results:
SMILES	S aureus helic	MgrA-DNA mod
COc1ccc(NC(=O)CN(C)C(=O)c2ccc3c(c2)NC(=O)CS3)cc1	13	nt
COc1ccc(N(C(=O)C(C)C)S(=O)(=O)c2cccs2)cc1	6	-0.5
Cn1c(Nc2ccccc2)cc(=O)n(C)c1=O	nt	-0.9
O=C(Cc1cccs1)N/N=C/c1ccc(C(=O)O)cc1	13	nt
O=C(O)C1CC1c1ccc(Br)cc1 (stereo unspecified)	11	nt
C=CCNC(=O)c1ccc(NC2=NC3CS(=O)(=O)CC3S2)cc1 (stereo unspecified)	2	nt
CCn1c(SCC(=O)OCC(=O)N2CCc3ccccc32)nnc1-c1cccs1	-3	nt
O=C(c1ccc(Cl)cc1)N1CCCOC1	-21	nt
C=CCn1c(SC2CCOC2=O)nc2scc(C3CC3)c2c1=O (stereo unspecified)	-5	nt
CCOc1ccc(S(=O)(=O)N(C)c2ccc(OCC(=O)NCCCn3ccnc3)cc2)cc1	-25	nt
CCc1nc2ccccc2c(C(=O)OC2CCCC2=O)c1C (stereo unspecified)	-5	nt
O=C(CSc1nc2ccccc2s1)NC1CCCCC1	6	3.2
Cc1cccc(Nc2ncncc2C#N)c1C	nt	2.2
O=C(c1cccs1)N1CCCn2c(SCc3ccccc3)nnc21	nt	-0.5
Cc1cc(=O)oc2cc(OCC(O)CNCc3cn4c(C)csc4n3)ccc12 (stereo unspecified)	-9	nt
COc1ccc(CN2C(=O)c3cccnc3C2=O)cc1S(=O)(=O)N1CC(=O)Nc2ccccc21	9	nt
CC(C)=C1Cc2cc3ccc(=O)oc3cc2O1	0	nt
Cc1ccc2c(c1)-c1c(cnn1CC(=O)Nc1cccnc1Cl)CO2	-15	nt
CCc1ccccc1NC(=O)CN(C)C(=O)Cn1cnc2ccc(Cl)cc2c1=O	-2	nt
COc1ccc(-n2c(C)cc(-c3csc(NC(=O)CC(C)(C)C)n3)c2C)cc1	6	nt
Oc1ccccc1CN(Cc1ccco1)CC(O)COc1ccc(Cl)cc1Cl (stereo unspecified)	2	nt
CCCCn1cnc2cc(NCc3cc(OC)ccc3OC)ccc21	11	nt
Nc1ccc(CC2C(=O)Nc3ccccc32)cc1 (stereo unspecified)	-16	nt
C/C(Nc1ccccc1Oc1ccccc1)=C1/CCOC1=O	nt	0.0
Cc1nc2ccc3nc(NC(=O)C4=COCCO4)sc3c2s1	-19	nt
SMILES	S aureus helic	MgrA-DNA mod
NCCc1c(C(=O)O)[nH]c2ccc(Br)cc12	16	-1.0
Cc1cc(C(=O)OCC(=O)N2CCCCC2)c(C)n1-c1ccccc1	-3	-0.6
COc1ccc(N2CCN(C(=O)C3c4ccccc4C(=O)N4CCc5cc(OC)c(OC)cc5C34)CC2)cc1 (stereo unspecified)	-9	nt
CC1CN(C(=O)CC(C)c2ccccc2)CC(C)O1 (stereo unspecified)	11	-0.2
CNC(=O)Cn1nc(C)n2cccc2c1=O	12	nt
COc1ccc(C(=O)Nc2nc3ccc(F)cc3s2)cc1	0	nt
COc1ccccc1CNC(=O)COc1ccccn1	0	-0.2
COc1ccc(S(=O)(=O)Nc2cc(Cl)ccc2Sc2nncn2C)cc1Br	-3	nt
CCn1c(=NC(=O)Cc2ccccc2)sc2cc(Br)ccc21	-15	nt
CCc1ccc(NC(=O)CSc2nnc(C(C)C)n2CC)cc1	1	0.3
c1nc(N2CCCCCC2)c2[nH]cnc2n1	21	nt
CC(C)(C)NC(=O)COc1ccc(CO)cc1	-1	-1.9
COC(=O)[C@@H](Cc1c[nH]c2ccccc12)NC(=O)c1ccc2c(c1)OCO2	6	nt
CCN(CC)c1ncnc(Cl)c1Cc1ccc(OC)cc1	-4	1.6
CCOC(=O)C1=C(C)N=c2s/c(=C\c3ccc(O)c(Br)c3)c(=O)n2C1c1ccc2c(c1)OCO2 (stereo unspecified)	nt	-3.8
COc1ccc(-c2ccc(CNCCN3CCOCC3)o2)cc1Cl	5	-5.5
O=C1CSC(c2ccc(Cl)cc2Cl)N1c1ccccn1 (stereo unspecified)	nt	-0.3
COc1cccc(CNC(=O)C(NS(=O)(=O)c2cccc3nsnc23)c2ccccc2)c1 (stereo unspecified)	11	nt
COc1ccc(Nc2nccc(-c3cccc(C#N)c3)n2)cc1	40	nt
COc1cc(/C=C2\SC(=O)N=C2N)ccc1O	-37	nt
COc1nc(OC)nc(N2CCN(c3cccc(C(F)(F)F)c3)CC2)n1	-16	nt
COc1cc(/C=C2\N=C(c3ccccc3)OC2=O)cc(Br)c1OCc1c(C)no[n+]1[O-]	7	nt
COc1ccc2c(CC(=O)OCC(=O)c3cc(C)n(-c4ccc5c(c4)OCO5)c3C)coc2c1	5	nt
CCOC(=O)c1ccc(N2C(=O)CC(SCC(=O)Nc3ccc(S(N)(=O)=O)cc3)C2=O)cc1 (stereo unspecified)	6	nt
Cc1sc2nc(SCc3cc(=O)[nH][nH]3)n(Cc3ccco3)c(=O)c2c1C	-7	0.6

Pulled one by one from above:
SMILES	S aureus helic	MgrA-DNA mod
COc1cccc(CNC(=O)C(NS(=O)(=O)c2cccc3nsnc23)c2ccccc2)c1 (stereo unspecified)	11	nt
CCN(CC)c1ncnc(Cl)c1Cc1ccc(OC)cc1	-4	1.6
COc1ccccc1CNC(=O)COc1ccccn1	0	-0.2

High-throughput results (PubChem BioAssay)

An excerpt; the hit share may differ from the screen's.
